D2 potentiator: human D2 receptor positive allosteric modulation | 0.23% of 360,000 active | potentiation, % (no concentration beside the values) | P14416 | DiscoveRx D2 beta-arrestin cells, luminescence, 90 min; 100% = 57 uM dopamine signal; active = potentiation of 50% or more; inconclusive = 30% to 50%; inactive = 30% or less;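 also: compound concentration not given in the record; tested on top of an EC20 dose of dopamine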
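PathHunter D2 cells, attached overnight at 37 deg C, received compound in DMSO plus dopamine at EC20 (50 nM final) for 90 min at 37 deg C. Beta-arrestin recruitment was read as luminescence after 1 h with detection reagent at ambient temperature.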
D2 agonist: activates the human D2 dopamine receptor; DiscoveRx PathHunter D2 beta-arrestin, luminescence, 90 min; 100% = 57 uM dopamine signal; activation, % (no concentration beside the values); 0.084% of 360,000 active; AID 624465; in the data active = activation above about 40%; inconclusive = about 15% to 40%; inactive = below about 15%; also: compound concentration not given in the record; the text of the record calls up to 30% inactive
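DiscoveRx PathHunter D2 beta-arrestin cells (2,100/well) attached overnight, then compound-stimulated 90 min at 37 C in HBSS/10 mM HEPES/0.1% Tween-20 buffer; beta-galactosidase complementation read by luminescence after 1 h at ambient temperature. Dopamine 57 uM final (EC100) as control.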
gsp agonist: agonists of gsp mutant (McCune-Albright syndrome); AID 624287; gsp mutant cells, cAMP HTRF, 30 min; control for the full effect not named in the record; 0.13% of 340,000 active; Potency, µM (top dose mostly 76.9 µM), for the others: top-dose activation (cAMP increase), most hits filed as activators; active = well fitted activation curve with a large enough effect; inconclusive = small, poorly fitted or top-dose-only effect, or another doubt; inactive = no such curve, though single readings can be large or run the other way; cell line not stated here;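 also: phosphodiesterase inhibitor Ro 20-1724 added with compounds to block cAMP breakdown; potency is read from the fitted curve at half-maximal effect; nearly all actives have a fitted effect of over 60% in size; about a fifth of the inactives were tested at one dose only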
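Cells in DMEM/10% FBS with G418 were pretreated with compounds in DMSO plus […] (300 uM stock) for 30 min at 37C. cAMP was measured by HTRF (cAMP-d2 plus anti-cAMP antibody-K) after 30 min at room temperature.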
gsp antag: antagonists of gsp mutant (McCune-Albright syndrome) | gsp-mutant cells, cAMP HTRF, 30 min; control for the full effect not named in the record | Potency, µM (top dose mostly 76.9 µM), inactives show at the top dose activity change, negative = inhibition, most hits filed as inhibitors | 0.4% of 340,000 active; active = falling curve of any shape with a large fitted effect; inconclusive = falling curve, mostly with a smaller effect; inactive = flat or rising curve; cell line not stated here;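 also: intracellular cAMP measured with PDE inhibitor Ro 20-1724 present during compound exposure; potency is read from the fitted curve at half-maximal effect; % is scaled to controls: 0 for no effect and ±100 for the full control effect; nearly all actives have a fitted effect of over 65% in size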
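Cells, 2000/well, grown 16–24 h in DMEM 10% FBS with 0.5 mg/ml G418, then compounds plus […] (300 uM addition stock), 30 min at 37C. cAMP read by HTRF (cAMP-d2 and anti-cAMP antibody-K in lysis buffer) after 30 min RT.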
Six1-Eya2 blk: blocks human Six1 binding to Eya2 | Q15475+O00167 | AlphaScreen GST-Six1/His-Eya2 binding, biochemical; hits give low values; control for the full effect not named in the record | activity change, % (no concentration beside the values) | 0.56% of 360,000 active; in the data active = activity change below about -65%; inconclusive = about -30% to -65%; inactive = above about -30%; also: % is scaled to controls: 0 for no effect and ±100 for the full control effect; compound concentration not given in the record
Target sequence (O00167 whole entry, looked up): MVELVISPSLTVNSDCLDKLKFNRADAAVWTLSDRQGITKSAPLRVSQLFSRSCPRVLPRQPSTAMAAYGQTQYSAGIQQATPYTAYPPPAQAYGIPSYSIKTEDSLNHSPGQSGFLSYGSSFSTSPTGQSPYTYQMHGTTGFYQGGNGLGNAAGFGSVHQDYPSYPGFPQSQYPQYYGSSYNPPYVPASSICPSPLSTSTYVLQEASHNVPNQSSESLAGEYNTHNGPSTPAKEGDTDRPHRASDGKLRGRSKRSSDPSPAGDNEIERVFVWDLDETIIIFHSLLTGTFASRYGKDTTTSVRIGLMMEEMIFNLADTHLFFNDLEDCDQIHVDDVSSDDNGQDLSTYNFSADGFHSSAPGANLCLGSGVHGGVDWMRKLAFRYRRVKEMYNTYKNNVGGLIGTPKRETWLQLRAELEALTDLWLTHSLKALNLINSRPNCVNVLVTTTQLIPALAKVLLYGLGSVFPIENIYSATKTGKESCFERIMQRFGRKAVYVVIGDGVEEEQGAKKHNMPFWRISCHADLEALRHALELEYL
Target sequence (Q15475 whole entry, looked up): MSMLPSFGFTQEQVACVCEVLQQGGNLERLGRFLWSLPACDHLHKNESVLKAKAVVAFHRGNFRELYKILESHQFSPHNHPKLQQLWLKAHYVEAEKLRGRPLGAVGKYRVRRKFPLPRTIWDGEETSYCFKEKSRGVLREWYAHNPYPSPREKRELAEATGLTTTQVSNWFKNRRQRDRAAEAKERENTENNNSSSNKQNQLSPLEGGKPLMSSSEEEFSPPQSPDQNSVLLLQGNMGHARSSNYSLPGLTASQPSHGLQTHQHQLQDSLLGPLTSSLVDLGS
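Homogeneous AlphaScreen proximity assay pairing GST-Six1 with His-tagged Eya2 (added as 5X mix: 250 nM and 500 nM) in 50 mM Tris pH 8.0, 300 mM NaCl, 1 mM TCEP. Glutathione donor and nickel acceptor beads; 1 h, 37 °C, dark.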
CtBP-E1A inh: CtBP/E1A binding inhibition; AlphaScreen GST-E1A/His-CtBP binding, 1536-well; hits give low values; control for the full effect not named in the record; activity change, % (test concentration not listed); 0.49% of 340,000 active; AID 651724; in the data active means activity change below about -65%; inconclusive means about -30% to -65%; inactive means above about -30%; also: % is scaled to controls: 0 for no effect and ±100 for the full control effect; compound concentration not given in the record
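Protein mix (5X: 125 nM each GST-E1A, His-CtBP) was incubated with pinned compound 2 h at 37 deg C in dark, in 50 mM Tris pH 8.0 buffer with 300 mM NaCl. Glutathione donor and nickel acceptor beads followed; AlphaScreen signal read after 1 h.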
* = called active by the depositor; ? = inconclusive; nt = no result given; & = joins results of further samples; [ ] = dose if it differs, or a comment.

SMILES	D2 potentiator	D2 agonist	gsp agonist	gsp antag	Six1-Eya2 blk	CtBP-E1A inh
Cc1cc(C(=O)COC(=O)c2ccc[nH]c2=O)c(C)n1C	18.7	-1.3	25.1%	-1.2%	-4.9	-1.9
CC(C)(C)NC(=O)CN(C(=O)CCC(=O)Nc1nccs1)c1ccccc1F	-9.2	-2.0	?	nt	6.3	-2.8
Cc1cccc(C(C#N)c2nc3ccccc3nc2C(F)(F)F)c1 (stereo not given)	-17.7	-1.9	12.2%	-6.5%	3.8	17.9
COc1cccc(-n2ccnc2SCC(=O)Nc2cc(OC)ccc2OC)c1	0.0	-1.8	-46.1%[inhibitor]	-5.2%	-29.2	?
O=C(Nc1ccc(F)c(Cl)c1)c1cccnc1	1.1	-3.6	1.3%	-12.7%	15.2	2.1
Cc1cc(NC(=O)CSc2nnc(C)n2-c2ccccc2)no1	-9.8	-6.5	-4.1%	-1.4%	1.2	2.3
CC(=O)n1cc([C@H]2C=C(C(=O)NCc3ccccc3)O[C@@H](OCCCCO)C2)c2ccccc21	-3.3	2.6	nt	-17.5%	0.6	2.3
Cc1ccccc1NC(=O)CCc1c(C)nn(-c2ccc(N3CCCCC3)nn2)c1C	5.5	1.2	?	-2.9%	2.4	-8.2
O=C(CN1C(=O)C2CC=CCC2C1=O)Nc1cc(C(F)(F)F)ccc1N1CCCC1 (stereo not given)	-29.1	-3.4	19.7%[15.4 µM]	-0.5%	8.4	0.8
CCN(CC)CC(=O)Nc1c(C)cccc1C	-2.3&-7.3&-4.4	-1.7&-5.6&7.9	nt	-3.6%&1.1%&5.0%	0.9&-1.9&1.5	8.7&2.9&10.2
C/C(=N/NC(=O)c1ccncc1)c1ccc(NC(=O)c2ccccc2)cc1	-8.2	1.0	-17.4%	-0.1%	0.1	nt
O=C1CCC[C@@H]2C[C@@]3(C[C@@H]4CCN1[C@H]24)Nc1cc(Cl)ccc1NC3=NCc1ccccc1	-42.3	1.0	nt	-11.0%	-6.1	0.7
CSC1=NCCN1C(=O)c1ccc(Br)o1	-16.0	0.8	19.5%	7.3%	-29.0	?
Cc1sc(N/N=C/C=C/c2ccccc2)nc1-c1ccccc1	16.9	6.7	-2.7%	-7.7%	6.2	-6.5
Cn1c(C(=O)N2CCCC(C(=O)NCCN3CCOCC3)C2)cc2sccc21 (stereo not given)	-20.7	1.1	-1.0%	5.3%	3.9	8.7
CCC(C(=O)OC)n1cnc2c(nnn2-c2ccc(C)cc2)c1=O (stereo not given)	-2.5	-5.7	9.9%	-2.3%	8.5	-3.4
CCOc1ccccc1NC(=S)NCc1ccccc1	-8.7	-7.7	3.7%	6.0%	-6.5	3.8
O=S(=O)(Cc1nnnn1-c1ccc(Br)cc1)c1ccccc1	-8.8	-3.4	-1.1%	nt	2.1	-3.0
CN1C(=O)C(C)(C)c2cc(S(=O)(=O)N3CCC(C(=O)NCc4ccc(F)cc4)CC3)ccc21	-5.9	5.6	-18.7%	-1.4%	0.5	3.4
COc1ccc(C2C(C(=O)N3CCN(c4ccc(OC)cc4)CC3)c3ccccc3C(=O)N2C)cc1 (stereo not given)	-9.0	-1.3	-24.6%	-10.1%	-4.6	3.6
CC(CC(=O)OCC(=O)NC1CCS(=O)(=O)C1)c1ccccc1 (stereo not given)	-4.7	-3.1	3.6%	11.8%	5.9	-24.6
COc1cc(/C=N/Nc2ccc3ccccc3c2)ccc1OC(=O)c1ccco1	50.6*	8.4	-26.7%	-6.4%	-11.2	-3.7
Cc1ccc(C(=O)/C=C/c2ccc(-c3ccc(C)cc3)o2)cc1	-23.9	-3.3	-2.8%	6.3%	18.8	18.7
COC(=O)c1ccc(C)c(NC(=O)c2ccc(CN3CCc4ccccc4C3)cc2)c1	-26.2	-8.0	-13.8%	-0.9%	0.2	1.2
CCCn1c(-c2ccc[nH]c2=O)nc2ccccc21	0.9	2.1	?	7.6%	13.1	8.3
Cc1sc2ncn3ncnc3c2c1C	-0.9	-2.7	13.6%	20.7%	-1.6	-9.0
O=C(O)c1cccc(S(=O)(=O)Nc2ccc(Oc3ccccc3)cc2)c1	4.4	-3.1	4.9%[15.4 µM]	8.5%	3.7	2.9
C/C(=N\NC(=O)Cc1cccn1C)c1cccs1	-39.4	-2.2	-3.5%	5.8%	-0.8	-1.1
O=C(NCc1ccco1)c1cc(-c2ccccn2)nc2ccccc12	-20.1	-2.3	0.4%	-9.0%	-3.7	10.0
CCOc1ccccc1N(C(=O)c1snc(C(N)=O)c1N)C(C(=O)NCCC(C)C)c1ccco1 (stereo not given)	-15.7	0.5	-80.4%[inhibitor]	-9.0%	1.4	5.0
Cc1oc2nc(SCC(=O)NC3CCCCC3)nc(N)c2c1C	-8.7	-0.8	22.7%	-5.0%	-7.6	-11.8
CCCC1=Nc2cc(C(=O)NCCCN3CCN(C)CC3)ccc2Sc2ccccc21	-5.6	-3.9	-5.6%	3.6%	1.0	nt
Cc1ccc(C(=O)N2CCN(c3ncnc4c(C)csc34)CC2)cc1	-4.6	-4.2	-17.2%[15.4 µM]	-25.6%	0.2	-25.5
CC1C(=O)N(Cc2cccc(F)c2)c2ccccc2N1C(=O)c1ccccc1 (stereo not given)	-7.8	-0.8	3.1%[15.4 µM]	-16.2%	-6.4	4.4
Cc1c(Nc2nc3ccccc3nc2NS(=O)(=O)c2cccc(Cl)c2)c(=O)n(-c2ccccc2)n1C	-4.3	-1.6	-2.9%[15.4 µM]	11.6%	-5.0	-9.6
Cc1cnc(C(=O)NC2CCSc3ccccc32)cn1 (stereo not given)	-11.3	-0.8	?	4.8%	8.2	2.4
COc1cccc(C(=O)COC(=O)C2CC3CCCC(C2)C3=O)c1 (stereo not given)	-12.5	-2.7	-6.7%	-3.8%	4.5	7.3
CC(C(=O)N(C)C1CCS(=O)(=O)C1)N1C(=O)/C(=C/c2ccco2)SC1=S (stereo not given)	0.2	14.1	27.2%	-8.3%	-14.6	-15.2
Cc1sc2nc(C(C)C)nc(SCC(=O)NCc3ccco3)c2c1C	9.0	-0.9	-16.9%	-1.2%	-5.6	2.4
N=C1SCC(=O)N1c1ncc(Cc2ccccc2Cl)s1	-2.0	-4.0	4.2%[15.4 µM]	2.8%	-1.6	-6.9
O=C(O)CCC(=O)Nc1nc2nccc(-c3ccccc3)n2n1	-0.6	-1.2	1.6%[15.4 µM]	9.9%	?	?
Cc1ccc(S(=O)(=O)Nc2ccccc2C(N)=O)cc1	-2.8	0.3	24.0%	8.5%	-0.8	-1.8
O=C(N/N=C/c1ccc(Br)cc1)c1cc[n+](Cc2ccccc2)cc1	-11.0	-0.4	-9.6%[15.4 µM]	-4.6%	15.5	-1.5
CCCc1nc2c3ccccc3ccn2c1Cc1ccccc1C(F)(F)F	-18.7	-10.3	nt	nt	5.5	0.4
CCC1(C)Cc2c(sc3nc(SC)[nH]c(=O)c23)CO1 (stereo not given)	-0.5	-1.7	-4.4%[15.4 µM]	-5.6%	5.0	-1.4
COc1ccc(CN(Cc2cccnc2)S(=O)(=O)c2ccc(-n3cnnn3)c(OC)c2)cc1	-2.1	1.0	18.8%	-9.1%	1.5	-0.4
Cc1ccc(CNC(=O)c2cccc3c2C(=O)c2ccc(N4CCOCC4)cc2S3(=O)=O)cc1	2.8	-7.9	-3.9%	-10.2%	-14.0	-0.2
COC(=O)c1nn(-c2ccccc2)c(Sc2ccc(Cl)cc2)c1/C=N/O	2.1	-1.6	10.1%	-12.8%	-5.2	-0.5
CCN(CC)CCCNC(=O)Cn1ncn2cccc2c1=O	10.2	-4.0	-14.3%	11.1%	0.8	4.1
O=C(c1ccc(S(=O)(=O)N2CCCCC2)cc1)N1CCCc2ccccc21	-4.0	-1.7	-14.2%	-3.4%	-7.3	3.1

(cont.)
SMILES	D2 potentiator	D2 agonist	gsp agonist	gsp antag	Six1-Eya2 blk	CtBP-E1A inh
O=[N+]([O-])c1ccc(Cl)c(/C=N/n2c(-c3ccncc3)n[nH]c2=S)c1	-0.5	-2.3	9.7%[15.4 µM]	-33.0%	-78.9*	-72.9*
COc1ccc(N2CCN(S(=O)(=O)c3c(C)[nH]c(C)c3C(=O)N3CCCCC3)CC2)cc1	-2.0	-0.6	8.5%	1.3%	-3.4	1.1
COC(=O)[C@H](Cc1ccccc1)NC(=O)NCCc1ccc(OC)cc1	0.3	2.8	-17.4%[15.4 µM]	-32.6%	8.7	2.3
CCCSc1nc2c(c(=O)[nH]c(=O)n2C)n1C	-2.7	-1.7	4.6%	17.8%	8.2	1.6
CC(C)Cn1c(N)c(C(=O)COC(=O)c2ccncc2)c(=O)n(C)c1=O	-8.5	0.9	3.5%	5.3%	5.8	-3.1
COc1ccc(N2CCN(C(=O)c3ccccc3Br)CC2)c([N+](=O)[O-])c1	-0.1	-6.3	2.7%	-14.3%	-15.6	-24.4
CN(Cc1ccccc1)C(=O)c1csc(COCCO)n1	-12.2	-3.9	nt	nt	-0.3	1.0
CC(C)C(NS(=O)(=O)c1cccs1)C(=O)N(C)Cc1ccccc1 (stereo not given)	3.7	0.0	-1.2%	-9.7%	-7.6	-14.9
CCN(CC)c1ccc(C(=O)NNC(=O)C2CCN(c3ncnc4sc(C)c(C)c34)CC2)cc1	5.1	-0.2	-34.6%[inhibitor]	nt	-10.8	-1.9
Cc1ccc(N(C)S(=O)(=O)c2ccc3c(c2)CC(C)N3C(=O)C2CC2)cc1 (stereo not given)	-27.1	-6.0	20.9%	-17.4%	-0.1	-6.5

An excerpt from above with just CtBP-E1A inh, gsp antag and D2 agonist:
SMILES | CtBP-E1A inh | gsp antag | D2 agonist
COc1ccc(N2CCN(S(=O)(=O)c3c(C)[nH]c(C)c3C(=O)N3CCCCC3)CC2)cc1 | 1.1 | 1.3% | -0.6
COC(=O)[C@H](Cc1ccccc1)NC(=O)NCCc1ccc(OC)cc1 | 2.3 | -32.6% | 2.8

The results go on:
SMILES	D2 potentiator	D2 agonist	gsp agonist	gsp antag	Six1-Eya2 blk	CtBP-E1A inh
Cc1cc(C)nc(Nc2ccccc2Br)n1	-4.7	0.1	27.0%	-2.4%	20.0	9.1
O=C(c1ccc(Br)cc1)N1CCN(c2ncccn2)CC1	1.1	4.5	?	5.8%	-3.2	0.5
CC(=O)Nc1ccc(S(=O)(=O)Nc2ccc(F)c([N+](=O)[O-])c2)cc1	1.0	-8.6	-2.1%[15.4 µM]	-0.4%	2.8	-13.9
COc1ccc(S(=O)(=O)NCc2cccnc2)cc1NC(=O)c1ccc(C)cc1	-9.2	-5.0	10.8%	-10.2%	-8.1	-13.4
CCCn1c(=O)c(C(=O)NCCc2ccc(Cl)cc2)c(O)c2ccccc21	-2.7	-5.3	9.0%	7.6%	1.6	-10.8
O=C(CO/N=C/c1cccc([N+](=O)[O-])c1)NC1CCCCCC1	-5.9	-6.5	4.3%[15.4 µM]	1.4%	0.8	-1.5
COc1ccc(CCC(=O)NCCS(=O)(=O)N2CCN(c3ccccc3)CC2)cc1	2.2	-5.7	?	2.2%	3.3	0.0
